# FGF22 binding = binders of recombinant human FGF22 by thermal shift | Q9HCT0 | hit rate 1.5% among 340,000 | SYPRO orange fluorescence; percent of sucrose octasulfate shift, DMSO zero | calls only at 9.99 µM;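 active = melting point raised past a set limit in the mean and every replicate; three in four hits are not shown here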
# Target sequence (Q9HCT0 whole entry, looked up): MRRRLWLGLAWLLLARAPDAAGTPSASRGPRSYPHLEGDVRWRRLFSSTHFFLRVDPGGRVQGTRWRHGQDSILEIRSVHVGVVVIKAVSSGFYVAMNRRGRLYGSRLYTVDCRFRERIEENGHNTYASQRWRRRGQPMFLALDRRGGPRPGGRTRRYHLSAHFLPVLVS
# AF4-AF9 inh = inhibitors of human MLL-AF4/AF9 interaction | AlphaScreen, biotin-AF4 peptide binding to FLAG-AF9 | inhibition, % at 10 µM | hit rate 0.47% among 350,000 | AID 651704;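 active = every replicate reaching a set inhibition limit, whatever the replicate mean, cut at about 25% in these data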;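 also: 0% = plate neutral control median and 100% = total signal loss; the record names both 10 and 1 µM as test concentration; the first replicate is given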
# Target sequence (P42568 whole entry, looked up): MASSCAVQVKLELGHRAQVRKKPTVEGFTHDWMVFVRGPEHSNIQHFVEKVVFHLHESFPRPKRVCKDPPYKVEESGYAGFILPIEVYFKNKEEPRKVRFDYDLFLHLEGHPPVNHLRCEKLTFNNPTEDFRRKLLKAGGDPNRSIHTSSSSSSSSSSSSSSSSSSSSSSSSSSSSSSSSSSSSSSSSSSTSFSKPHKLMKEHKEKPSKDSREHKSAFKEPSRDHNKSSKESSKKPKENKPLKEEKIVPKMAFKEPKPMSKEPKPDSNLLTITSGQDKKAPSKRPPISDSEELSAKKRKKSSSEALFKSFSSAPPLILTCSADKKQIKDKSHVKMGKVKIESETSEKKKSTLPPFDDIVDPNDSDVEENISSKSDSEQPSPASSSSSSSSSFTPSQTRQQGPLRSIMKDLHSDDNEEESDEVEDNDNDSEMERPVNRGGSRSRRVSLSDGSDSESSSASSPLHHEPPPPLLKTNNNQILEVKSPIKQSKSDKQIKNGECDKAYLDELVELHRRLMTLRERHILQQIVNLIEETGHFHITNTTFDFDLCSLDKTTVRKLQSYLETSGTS
# Numbers without * were called inactive; i = inactive. Only part of the results is shown. The share of hits here may be higher or lower than overall.
SMILES,FGF22 binding,AF4-AF9 inh
O=C(Nc1ccc2c(c1)[C@H]1C[C@H](CC(=O)N3CCCCC3)O[C@@H](CO)[C@H]1O2)C1CCC1,i,-0.9
C[C@H](CO)N1C[C@H](C)[C@H](CN(C)Cc2ccncc2)Oc2ccc(NC(=O)CCN3CCOCC3)cc2CC1=O,i,0.2
O=C(Nc1cccc(F)c1)N1CCCCN2[C@@H](CO)[C@@H](c3ccc(C#CC4CC4)cc3)[C@@H]2C1,i,1.8
CO[C@@H](CN(C)C(=O)c1ccccc1F)[C@H](C)CN([C@H](C)CO)S(=O)(=O)c1ccccc1,i,-34.0
C[C@H]1CN([C@@H](C)CO)S(=O)(=O)c2ccc(-c3cccnc3)cc2O[C@H]1CN(C)C,i,-2.1
CC12N=C3SCC(=O)N3[C@H](c3ccccc3O1)[C@H]2CO[Si](C)(C)C(C)(C)C,i,-4.6
COc1ccc(S(=O)(=O)N(C)C[C@@H]2Oc3ncc(C#CC(C)(C)O)cc3C(=O)N([C@H](C)CO)C[C@@H]2C)cc1,i,-4.0
COc1ccc(CN(C)C[C@H]2Oc3ccc(NC(=O)CCC(F)(F)F)cc3C(=O)N([C@H](C)CO)C[C@@H]2C)cc1,i,0.5
COc1ccc(-c2ccc3c(c2)[C@H]2[C@H](CCN2S(=O)(=O)c2ccc(OC)cc2)[C@@H](CO)N3C)cc1,i,-9.1
CO[C@H]1CN(C)C(=O)c2cc(NC(=O)C3CCCCC3)ccc2OC[C@H](C)N(Cc2nccs2)C[C@@H]1C,i,0.6
CC(C)CN1CCC(CN2C(=S)NC[C@@H]2Cc2ccccc2)CC1,i,1.7
N#C[C@H]1[C@@H](c2ccccc2C2=CCCCC2)[C@H](CO)N1C(=O)CN1CCOCC1,i,-1.5
O=C(Nc1ccccc1F)N1CCCCN2[C@H](CO)[C@H](c3ccc(C#Cc4ccccc4)cc3)[C@@H]2C1,i,-4.4
COCC#Cc1ccc2c(c1)O[C@H](CN(C)Cc1ccccc1F)[C@H](C)CN([C@H](C)CO)S2(=O)=O,i,6.8
C[C@@H]1CN([C@@H](C)CO)C(=O)Cc2cc(NC(=O)Nc3ccc(F)cc3)ccc2O[C@@H]1CN(C)C(=O)Nc1cccc2ccccc12,i,-1.0
C[C@H](CO)N1C[C@H](C)[C@@H](CN(C)S(=O)(=O)c2ccc(Cl)cc2)Oc2ccc(NC(=O)Nc3ccc(F)cc3)cc2CC1=O,i,1.2
COCC(=O)N1[C@H](C(=O)N2CCCCC2)[C@@H](CO)[C@@H]2Cn3c(ccc(C4=CCCC4)c3=O)[C@@H]21,i,-0.8
CN(C)CC(=O)N[C@@H]1CC[C@H](CC(=O)NCCN2CCCCC2)O[C@H]1CO,i,-11.2
CN1CCN(C(=O)C[C@H]2CC[C@H]3[C@@H](COC[C@H](O)CN3Cc3ccc(Oc4ccccc4)cc3)O2)CC1,i,7.6
C[C@@H]1CN([C@H](C)CO)C(=O)Cc2cc(NS(C)(=O)=O)ccc2O[C@H]1CN(C)S(=O)(=O)c1ccccc1,i,-2.5

# 2 of the compounds above, tab-delimited:
Compound	FGF22 binding	AF4-AF9 inh
COCC(=O)N1[C@H](C(=O)N2CCCCC2)[C@@H](CO)[C@@H]2Cn3c(ccc(C4=CCCC4)c3=O)[C@@H]21	i	-0.8
CN(C)CC(=O)N[C@@H]1CC[C@H](CC(=O)NCCN2CCCCC2)O[C@H]1CO	i	-11.2

# New compounds follow:
SMILES,FGF22 binding,AF4-AF9 inh
C[C@@H]1CN([C@H](C)CO)C(=O)Cc2cc(NC(=O)Nc3ccc(F)cc3)ccc2O[C@H]1CN(C)S(=O)(=O)c1ccc(F)cc1,i,-2.6
Cc1noc(C)c1NC(=O)Nc1ccc2c(c1)C(=O)N([C@H](C)CO)C[C@H](C)[C@@H](CN(C)Cc1ccc(C(F)(F)F)cc1)OCCCC[C@H](C)O2,i,3.4
COc1ccccc1C(=O)Nc1ccc2c(c1)OC[C@H](C)N(C)C[C@H](C)[C@H](OC)CN(C)C2=O,i,0.0
C[C@H]1CN([C@@H](C)CO)C(=O)c2cccc(NC(=O)c3cnccn3)c2O[C@@H]1CN(C)Cc1ccc(C(F)(F)F)cc1,i,-1.7
C[C@@H]1CN([C@H](C)CO)C(=O)c2cc(NS(=O)(=O)c3ccc(F)cc3)ccc2O[C@H]1CN(C)C(=O)Nc1ccc2c(c1)OCO2,i,-2.3
CC(C)NC(=O)N1CCCCN2[C@H](C1)[C@@H](c1ccc(C#C[C@@H](C)O)cc1)[C@@H]2CO,i,-5.5
COc1ccc(NC(=O)N(C)C[C@H]2Oc3c(NC(=O)Nc4ccccc4)cccc3C(=O)N([C@@H](C)CO)C[C@H]2C)cc1,i,2.1
CCN1[C@H](C(=O)NCc2ccccn2)[C@@H](CO)[C@@H]2Cn3c(ccc(C4=CCCCC4)c3=O)[C@@H]21,i,6.2
O=C(C[C@H]1C[C@H]2c3cc(NC(=O)c4cccnc4)ccc3O[C@H]2[C@H](CO)O1)NCC(F)(F)F,i,-2.3
CO[C@@H]1CC[C@@H]2CCOc3c(C#N)cccc3C(=O)N(C)C[C@H](C)C(=O)N(C)C[C@@H]1O2,i,-5.3
C[C@H]1CN([C@@H](C)CO)S(=O)(=O)c2ccc(C#CCN(C)C)cc2O[C@@H]1CN(C)C(=O)C1CCCCC1,i,2.9
CO[C@@H]1CN(C)C(=O)c2cc(NC(=O)C3CCOCC3)ccc2OC[C@H](C)N(Cc2nccs2)C[C@H]1C,i,-1.8
C[C@H]1CN([C@@H](C)CO)C(=O)c2cccc(NC(=O)c3ccncc3)c2O[C@H]1CN(C)Cc1ccc(C(=O)Nc2ccccc2N)cc1,i,-17.0
C[C@H]1CN([C@@H](C)CO)C(=O)c2cc(NS(=O)(=O)c3ccc(F)cc3)ccc2O[C@@H]1CN(C)Cc1ccncc1,i,-2.2
CC(C)NC(=O)Nc1ccc2c(c1)C(=O)N([C@@H](C)CO)C[C@H](C)[C@H](CN(C)S(=O)(=O)c1cccs1)OCCCC[C@H](C)O2,i,2.3
CO[C@@H]1CN(C)C(=O)c2cc(NC(=O)c3ccc(F)cc3)ccc2OC[C@@H](C)N(C(C)=O)C[C@@H]1C,i,2.9
O=C(C[C@H]1CC[C@H](NC(=O)c2ccccn2)[C@H](CO)O1)NCc1cc(F)cc(F)c1,i,-1.2
C[C@H]1CN([C@@H](C)CO)C(=O)c2c(c3ccccc3n2C)-c2ccccc2CO[C@@H]1CN(C)C,i,-0.1
C/C=C/c1ccc([C@H]2[C@@H](CO)N(C(=O)CN(C)C)C23CN(C(=O)C2CCOCC2)C3)cc1,i,0.0
C[C@@H]1CCCCO[C@@H](CN(C)C(=O)Nc2ccc(F)cc2)[C@H](C)CN([C@@H](C)CO)C(=O)c2cc(NS(=O)(=O)c3cn(C)cn3)ccc2O1,i,0.7
CO[C@H](CN(C)C(=O)C1CCOCC1)[C@H](C)CN(C(=O)Nc1ccc(C(F)(F)F)cc1)[C@@H](C)CO,i,-0.8
C[C@@H]1CN([C@@H](C)CO)C(=O)c2cccc(NC(=O)c3cnccn3)c2O[C@@H]1CN(C)S(=O)(=O)c1cccs1,i,-0.8
O=C(C1CC1)N1CCCCN2[C@H](C1)[C@@H](c1ccc(C#CC3CCCC3)cc1)[C@@H]2CO,i,-0.6
O=C(C[C@@H]1C[C@H]2c3cc(NC(=O)c4ccc5c(c4)OCO5)ccc3O[C@H]2[C@@H](CO)O1)NC1CCCCC1,i,0.9
C[C@H](CO)N1C[C@H](C)[C@H](CN(C)C(=O)c2cccnc2)Oc2ncc(C3=CCCCC3)cc2C1=O,i,-6.8
COc1ccc(NC(=O)N(C)C[C@@H]2Oc3ccc(NC(=O)CCCCCC(=O)Nc4ccccc4N)cc3CC(=O)N([C@@H](C)CO)C[C@H]2C)cc1,i,-1.6
COCC#Cc1cnc2c(c1)C(=O)N([C@H](C)CO)C[C@H](C)[C@H](CN(C)C(=O)c1cccnc1)O2,i,-4.9
CO[C@H]1CN(C)C(=O)c2cc(NC(=O)C3CCC3)ccc2OC[C@@H](C)N(Cc2ccc(F)cc2)C[C@@H]1C,i,2.5
C[C@@H]1CCCCO[C@@H](CN(C)S(=O)(=O)c2ccccc2)[C@H](C)CN([C@H](C)CO)C(=O)c2cc(NC(=O)Nc3ccc(F)cc3)ccc2O1,i,3.1
COc1ccc(-c2cnc3c(c2)C(=O)N([C@H](C)CO)C[C@@H](C)[C@@H](CN(C)Cc2ccccn2)O3)cc1,i,-3.0
Cc1noc(C)c1NC(=O)N(C)C[C@H]1Oc2ccc(NC(=O)Nc3cccc4ccccc34)cc2C(=O)N([C@H](C)CO)C[C@H]1C,i,1.4
O=S(=O)(c1cccs1)N1CCCCN2[C@@H](CO)[C@@H](c3ccc(Br)cc3)[C@@H]2C1,i,3.3
CO[C@@H]1CN(C)C(=O)c2ccc(NC(=O)c3nc4ccccc4s3)cc2OC[C@@H](C)N(Cc2ccncc2)C[C@@H]1C,i,5.7
CN(C)CC(=O)N1[C@H](C#N)[C@H](c2ccc(-c3cccc(C(=O)N(C)C)c3)cc2)[C@@H]1CO,i,-0.9
O=C([C@H]1[C@H](CO)[C@H]2Cn3c(ccc(-c4cccc(F)c4)c3=O)[C@H]2N1Cc1cocn1)N1CCCCC1,i,-0.5
C[C@H](CO)N1C[C@H](C)[C@@H](CN(C)C(=O)Nc2ccccc2)Oc2ccc(NC(=O)Cc3cn(C)c4ccccc34)cc2C1=O,i,-1.1
Cc1noc(C)c1S(=O)(=O)Nc1ccc2c(c1)C(=O)N([C@@H](C)CO)C[C@@H](C)[C@H](CN(C)C(=O)c1ccncc1)OCCCC[C@@H](C)O2,i,0.3
C[C@@H]1CN([C@H](C)CO)C(=O)c2cc(NC(=O)Nc3ccc(F)cc3)ccc2O[C@@H]1CN(C)Cc1ccc(C(=O)O)cc1,i,-2.2
COc1ccc2c3c([nH]c2c1)[C@H](CO)N(C(=O)C1CCCC1)CC31CN(Cc2cccc(F)c2)C1,i,16.8
COC(=O)C[C@H]1C[C@H]2c3cc(NC(=O)NC4CCCC4)ccc3O[C@H]2[C@H](CO)O1,i,0.0

# Looked up by compound from the list above (six):
SMILES,FGF22 binding,AF4-AF9 inh
CN(C)CC(=O)N1[C@H](C#N)[C@H](c2ccc(-c3cccc(C(=O)N(C)C)c3)cc2)[C@@H]1CO,i,-0.9
COCC#Cc1cnc2c(c1)C(=O)N([C@H](C)CO)C[C@H](C)[C@H](CN(C)C(=O)c1cccnc1)O2,i,-4.9
CO[C@@H]1CN(C)C(=O)c2ccc(NC(=O)c3nc4ccccc4s3)cc2OC[C@@H](C)N(Cc2ccncc2)C[C@@H]1C,i,5.7
C[C@@H]1CN([C@@H](C)CO)C(=O)c2cccc(NC(=O)c3cnccn3)c2O[C@@H]1CN(C)S(=O)(=O)c1cccs1,i,-0.8
CO[C@H]1CN(C)C(=O)c2cc(NC(=O)C3CCC3)ccc2OC[C@@H](C)N(Cc2ccc(F)cc2)C[C@@H]1C,i,2.5
COC(=O)C[C@H]1C[C@H]2c3cc(NC(=O)NC4CCCC4)ccc3O[C@H]2[C@H](CO)O1,i,0.0

# New compounds follow
SMILES,FGF22 binding,AF4-AF9 inh
O=C(C[C@@H]1CC[C@H](NC(=O)CN2CCOCC2)[C@@H](CO)O1)NCCc1ccncc1,i,-0.2
CO[C@H]1CN(C)C(=O)c2cc(NC(C)=O)ccc2OC[C@@H](C)N(C(=O)C2CC2)C[C@@H]1C,i,-0.8
COc1ccc(S(=O)(=O)N(C)C[C@H]2Oc3cc(C#CC4CC4)ccc3S(=O)(=O)N([C@H](C)CO)C[C@@H]2C)cc1,i,2.3
COc1ccc(CN(C)C[C@H]2Oc3ccc(NC(=O)C4CCCCC4)cc3C(=O)N([C@@H](C)CO)C[C@H]2C)cc1,i,-0.9
COc1ccc(NC(=O)Nc2ccc3c(c2)C(=O)N([C@@H](C)CO)C[C@H](C)[C@@H](CN(C)S(=O)(=O)c2cccs2)OCCCC[C@@H](C)O3)cc1,i,-0.2
O=C(C[C@@H]1C[C@@H]2c3cc(NS(=O)(=O)c4ccc(F)cc4)ccc3O[C@@H]2[C@@H](CO)O1)NCc1ccc(Cl)cc1,i,0.7
C/C=C/c1cnc2c(c1)C(=O)N([C@H](C)CO)C[C@@H](C)[C@H](CN(C)S(=O)(=O)c1ccc(C)cc1)O2,i,-2.7
COCc1cn(CC[C@H]2CC[C@@H](NC(=O)c3ccncc3)[C@@H](CO)O2)nn1,i,-1.6
COCC#Cc1cnc2c(c1)C(=O)N([C@H](C)CO)C[C@H](C)[C@@H](CN(C)C(=O)Nc1c(C)noc1C)O2,i,-3.1
COCC(=O)N1CCCCN2[C@@H](CO)[C@H](c3ccc(-c4cccc(C)c4)cc3)[C@@H]2C1,i,2.0
C[C@H]1CN([C@@H](C)CO)C(=O)c2cc(-c3cccc(F)c3)cnc2O[C@H]1CN(C)C(=O)c1ccccn1,i,-5.6
CC(C)CC#Cc1cnc2c(c1)C(=O)N([C@@H](C)CO)C[C@@H](C)[C@H](CN(C)C(=O)C1CCCCC1)O2,i,1.0
CC(C)NC(=O)N(C)C[C@H]1OCCCC[C@H](C)Oc2ccc(NC(=O)Cc3ccccc3)cc2C(=O)N([C@@H](C)CO)C[C@H]1C,i,-0.3
C[C@H]1CN([C@@H](C)CO)C(=O)CCCn2cc(nn2)CO[C@H]1CN(C)C(=O)NC1CCCCC1,i,1.1
COc1cccc(S(=O)(=O)Nc2ccc3c(c2)C(=O)N(C)C[C@@H](OC)[C@@H](C)CN[C@@H](C)CO3)c1,i,-3.6
COCC(=O)N(C)C[C@@H]1Oc2ncc(C#Cc3ccc(OC)cc3)cc2C(=O)N([C@@H](C)CO)C[C@H]1C,i,0.5
C[C@H]1CN([C@@H](C)CO)C(=O)Cc2cc(N(C)C)ccc2O[C@H]1CN(C)S(=O)(=O)c1ccccc1,i,0.6
CS(=O)(=O)N1CCCCN2[C@H](CO)[C@@H](c3ccc(C#Cc4ccccn4)cc3)[C@H]2C1,i,22.2
CC(C)C1CC(N(C)C)=CC(=S)N1 (stereo not given),i,-6.0

# Compound activity: PubChem BioAssay, Broad Institute
